Screening results deposited in PubChem BioAssay by several laboratories.
Mtb growth: M. tuberculosis H37Rv growth inhibitors, H37Rv strain (AID 1626); M. tuberculosis H37Rv growth inhibition; higher % means a stronger effect; one-dose inhibition, % at 10 µM; IC50 in µM for titrated hits; hit rate 0.95% among 220,000;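 active means confirmed in a dose series; inconclusive means inhibition above 80% but not taken into the dose series; inactive means below 80% or under 30% at every dose of the series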;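 further: bacteria incubated seven days before Alamar blue readout; 0% = bacteria only wells and 100% = bacteria with antibiotic wells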
RecA intein inh: blocks M. tuberculosis RecA intein splicing | inhibition, %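 (about 9 µM by stock and volumes)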 | AID 2221 | hit rate 0.75% among 290,000 | cell-free RecA intein splicing, fluorescence | P9WHJ3; in the data active means inhibition above about 30%; inconclusive means no clear call, values can overlap the other calls;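 further: 0% = vehicle wells and 100% = reference inhibitor control wells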
Target sequence (P9WHJ3 whole entry, looked up): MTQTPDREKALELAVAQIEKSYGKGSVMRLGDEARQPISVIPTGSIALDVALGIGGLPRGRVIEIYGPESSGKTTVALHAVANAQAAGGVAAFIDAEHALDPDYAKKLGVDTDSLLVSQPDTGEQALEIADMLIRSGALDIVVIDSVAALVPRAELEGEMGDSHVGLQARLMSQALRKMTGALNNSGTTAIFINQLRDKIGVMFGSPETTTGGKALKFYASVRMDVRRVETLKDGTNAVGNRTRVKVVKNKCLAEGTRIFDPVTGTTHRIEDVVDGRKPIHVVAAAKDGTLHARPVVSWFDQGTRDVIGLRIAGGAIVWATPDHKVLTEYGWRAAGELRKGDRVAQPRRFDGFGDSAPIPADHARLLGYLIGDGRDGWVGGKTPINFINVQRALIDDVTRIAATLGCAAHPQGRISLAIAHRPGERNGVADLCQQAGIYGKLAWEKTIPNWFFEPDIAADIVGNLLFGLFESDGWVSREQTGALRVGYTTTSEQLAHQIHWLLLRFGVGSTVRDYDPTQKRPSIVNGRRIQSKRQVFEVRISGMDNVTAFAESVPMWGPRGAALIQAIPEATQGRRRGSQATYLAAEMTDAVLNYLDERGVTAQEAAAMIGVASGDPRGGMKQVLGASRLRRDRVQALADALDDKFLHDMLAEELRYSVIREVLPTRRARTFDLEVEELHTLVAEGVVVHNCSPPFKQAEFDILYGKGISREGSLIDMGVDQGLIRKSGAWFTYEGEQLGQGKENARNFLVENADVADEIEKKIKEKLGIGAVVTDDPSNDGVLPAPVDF
Arbovirus anti: arbovirus infection inhibition. arbovirus infection cell-based antiviral screen. inhibition, % at 10 µM. hit rate 0.37% among 200,000. AID 1251;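 active means inhibition from about 30%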;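 further: bluetongue infection of BSR cells; cell survival read as ATP light after 72 h; 0% = infected wells without compound and 100% = uninfected wells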
YopH inh: YopH (Yersinia) phosphatase inhibition. fluorescence Ex485/Em525. inhibition, %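 (about 10 µM by stock and volumes)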. hit rate 0.16% among 140,000. AID 898;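 active means inhibition of 50% or more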;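 further: controls were vehicle for no effect and minimum signal wells for full effect; inactives centre near -20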
Mtb bLac sens: beta-lactam sensitization of Mtb H37Rv. M. tuberculosis H37Rv growth with meropenem, percent inhibition; hits of this screen are not shown here. hit rate 0.27% among 330,000. inhibition, % at 25 µM. AID 434955;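 active means about 74% or more and at least 40 points above the plate without the antibiotic, then above 30% in a dose series; inconclusive means first-round hits that could not be retested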;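 further: growth measured after seven days incubation then overnight dye step; 0% = bacteria only wells and 100% = bacteria with antibiotic; twin plates without the antibiotic show which effects depend on it; some results filed as inactive read as strong as hits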
Arbovirus anti repeat: also measured in Arbovirus anti; calls as there; inhibition, %; measured here: 10K subset replicate screen; many hits read low in the repeat;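 first of two repeat runs on a subset; 0% = infected and 100% = uninfected wells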
Active calls of the source: *; ? = inconclusive; . = no result given. A portion of the library; count on the stated rates, not on these rows.

SMILES	Mtb growth	RecA intein inh	Arbovirus anti	YopH inh	Mtb bLac sens	others
COc1ccc(C(C)=O)cc1COC(=O)CNC(=O)c1cc(C)cc(C)c1	-1%	2.3	3	-14	-1
O=C(N/N=C/c1cc2c(cc1Cl)OCO2)c1cc(-c2ccccc2)n[nH]1	.	0.8	.	.	-4
COc1ccc(S(=O)(=O)N2CCC(C(=O)NCc3ccccc3)CC2)cc1OC	2%	-3.1	3	.	-10
Cc1ccc(CNC(=O)CCNC(=O)c2ccco2)cc1	-13%	0.6	4	7	1
COc1cccc(C(=O)COC(=O)c2cccs2)c1	.	1.2	.	.	-7
Cc1ccc(N(CC(=O)Nc2ccc(C)cc2C)S(=O)(=O)N2CCCC2)cc1	1%	3.9	-3	-35	-9
CCCCc1ccc(NC(=S)NCc2cccs2)cc1	16%	5.5	-37	-1	81
CC(C)N(Cc1nccn1C)C(=O)c1cc(COc2ccc(F)cc2Cl)on1	.	-0.6	.	.	-2
CCOc1ccc(C(=O)/C=C/c2cc(OC)c(OC)c(OC)c2)cc1	?	2.9	-31	.	98
CC(=O)Nc1ccc(NC(=O)C(C)OC(=O)CNS(=O)(=O)c2ccc(Br)cc2Cl)cc1 (stereo unspecified)	.	2.4	.	.	1
CCC(C)Nc1nc(-c2c[nH]c3ccccc23)cs1 (stereo unspecified)	.	1.4	.	.	84
Cc1ccccc1Nc1nnc(SCc2cc(=O)n3ccsc3n2)s1	-7%	2.4	6	-27	-8
COc1ccc(C(=O)CSc2n[nH]c(N)n2)cc1	2%	0.1	-4	-14	-8
CCNS(=O)(=O)c1ccc(C(=O)OCc2cc(=O)oc3cc(OC)ccc23)cc1	.	-2.1	.	.	-2
C=CCc1cccc(CNc2c(C)n(C)n(-c3ccccc3)c2=O)c1O	1%	4.0	4	-34	5
CC1=CC(C)(C)n2c(O)c(N=N)c3c(C)c(C)cc1c32	8%	7.7	.	.	28
Cc1ccc(N2C(=O)CC(=O)NC2=O)cc1Cl	.	0.1	.	.	9
Oc1cccc2ccc(N3CCOCC3)nc12	.	-2.6	.	.	6
Cc1ccc(CS(=O)Cc2ccc(C(=O)N3CCN(c4ccccn4)CC3)o2)cc1 (stereo unspecified)	.	3.0	.	.	-8
COc1cc2cc(C(=O)N3CCc4ccccc4C3)[nH]c2cc1OC	.	0.4	.	.	-5
CC(C)C(O)(CC#CCN1CCCC1)c1ccccc1 (stereo unspecified)	2%	-6.2	3	.	-7
CC(OC(=O)CNS(=O)(=O)c1ccc2ccccc2c1)C(=O)N(C)c1ccccc1 (stereo unspecified)	.	2.2	.	.	-1
Cc1cc(C)n2nc(C(=O)N/N=C/c3cn(C)nc3C)nc2n1	-1%	-5.5	.	.	-2
COc1ccccc1N1CCN(Cc2cccs2)CC1	1%	5.1	-5	-30	-1
CCC(C)Sc1cc(C(F)(F)F)c(C(=O)Nc2ccc(Cl)cc2)cn1 (stereo unspecified)	-5%	-1.4	.	.	-5
CCCN1CCC(=NNc2ccc(S(=O)(=O)N(CC)CC)cc2[N+](=O)[O-])CC1	-5%	-6.9	-12	.	-1
N/C(Cc1ccc(Cl)cc1)=N\OC(=O)Cc1ccc([N+](=O)[O-])cc1	2%	0.1	1	-15	-10
C=CCNC(=O)CC1Nc2c3ccccc3nc(=S)n2C1=O (stereo unspecified)	-1%	-6.5	3	.	-11
Cc1cc(C)cc(N(CC(=O)Nc2ccc(-c3nc4ccc(C)cc4s3)cc2)S(C)(=O)=O)c1	-7%	-1.8	-4	-14	7
COc1cc(OC)cc(C(=O)Nc2c(F)cccc2F)c1	-8%	1.1	-8	-35	6
CCc1c(C(=O)N2CCN(c3ccccc3F)CC2)[nH]c(C)c1C(C)=O	-7%	-0.9	-4	-23	-9
COc1ccc(/C(O)=C2/C(=O)C(=O)N(CCN3CCOCC3)C2c2ccccn2)cc1OC (stereo unspecified)	-3%	-1.1	-1	24	2
COc1ccc([C@@H]2[C@H]3C(=O)N(c4cccc(C(F)(F)F)c4)C(=O)[C@H]3ON2C)cc1	-11%	1.5	-3	-29	-12
CCN(CC(=O)Nc1ccc2c(c1)OCO2)Cc1nc2ccccc2c(=O)[nH]1	-2%	-1.0	-1	-11	-2
Cc1cc(OC(=O)C(C)(C)C)c([N+](=O)[O-])c(=O)[nH]1	.	.	-3	.	3
COc1ccccc1N1CCN(C(=O)CCc2ccccc2)CC1	.	3.1	.	.	5

Sorted by number of heavy atoms (rising): part of the list above
SMILES	Mtb growth	RecA intein inh	Arbovirus anti	YopH inh	Mtb bLac sens	others
COc1cc(OC)cc(C(=O)Nc2c(F)cccc2F)c1	-8%	1.1	-8	-35	6
COc1ccccc1N1CCN(C(=O)CCc2ccccc2)CC1	.	3.1	.	.	5
CCN(CC(=O)Nc1ccc2c(c1)OCO2)Cc1nc2ccccc2c(=O)[nH]1	-2%	-1.0	-1	-11	-2
COc1ccc([C@@H]2[C@H]3C(=O)N(c4cccc(C(F)(F)F)c4)C(=O)[C@H]3ON2C)cc1	-11%	1.5	-3	-29	-12
COc1ccc(/C(O)=C2/C(=O)C(=O)N(CCN3CCOCC3)C2c2ccccn2)cc1OC (stereo unspecified)	-3%	-1.1	-1	24	2

Other compounds.
SMILES	Mtb growth	RecA intein inh	Arbovirus anti	YopH inh	Mtb bLac sens	others
CCN(CC)CCNC(=O)C12CC3CC(CC(C3)C1)C2	-9%	-0.5	-2	-18	-1
CS(=O)(=O)Nc1ccccc1NS(C)(=O)=O	2%	-0.8	.	.	-4
COc1ccc(Sc2cc(C(F)(F)F)nc(-c3ccccn3)n2)cc1	5%	0.0	15	-18	-6
CCCCOc1ccc(C(=O)NC(=S)Nc2ccc(CN3CCOCC3)cc2)cc1	2%	-0.8	3	-14	4
COC(=O)c1cccc(NS(C)(=O)=O)c1	.	0.7	.	.	-5
Cc1c(C)c2ccc(O)c(CN3CCCC3)c2oc1=O	.	-77	.	.	-1
Cc1ccc(NC(=O)N2CCC(C(=O)NCc3ccc(F)cc3)CC2)cc1	-4%	4.3	-2	2	-3
COCC(=O)Nc1cccc2ccccc12	-9%	0.2	-1	-48	6
COc1ccccc1-c1nnc(NC(=O)Cc2ccccc2)o1	.	-1.4	.	.	61
COc1ccccc1NC(=O)c1ccc(NC(=O)COC(=O)C(C)C)cc1	3%	-1.5	12	-34	94
COC(=O)Nc1cc(C(=O)c2ccc(Cl)cc2Cl)c[nH]1	.	-2.5	.	.	2
Fc1ccccc1CN1CCN(c2ncccn2)CC1	.	-0.3	.	.	-7
CC1(OC(=O)C2CCCC2)C(=O)C=C2C=C(c3ccsc3)OC=C2C1=O (stereo unspecified)	-3%	-2.4	.	.	-1
CC(C)(O)C#Cc1ccc(C(=O)NCc2ccccc2F)cc1	-14%	1.5	2	-31	1
COc1ccccc1CNC(=O)C1CC(c2c(Cl)cccc2Cl)=NO1 (stereo unspecified)	-9%	0.6	3	-33	-8
CC(C)c1ccc(NC2CCCN(C(=O)CCN3CCOCC3)C2)cc1 (stereo unspecified)	.	1.3	.	.	2
Cc1ccccc1-n1c(SCC(=O)N2CCOCC2)nc(O)c(Cc2ccccc2)c1=O	.	1.6	.	.	1
O=C(O)c1cccc(C(=O)Cc2ccccc2)c1	6%	-2.6	-4	-41	0
Cc1cccc(OCCC(=O)Nc2ccc(Cl)cc2F)c1	.	4.1	.	.	-1
CCn1c(SCC(=O)Nc2ccccc2F)nnc1-c1cnccn1	.	-2.7	.	.	7
Cc1ccc(N2C(=O)CC(NNc3nc4ccccc4s3)C2=O)cc1C (stereo unspecified)	-6%	0.2	5	-41	2
CC(=O)c1csc(COc2cc(Cl)cc(Cl)c2)n1	-1%	-0.1	.	.	-15
COc1ccc(-c2[nH]ncc2CN2CCCC(C(=O)c3cccc(OC)c3)C2)cc1 (stereo unspecified)	-4%	0.8	0	.	-5
COc1ccc(CN2CCC(Oc3ccc(C(=O)N4CCCC4)cc3)CC2)c(F)c1	.	0.8	.	.	3
CC(C)c1ccc(N2C(=O)C(Cl)=C(N3CCOCC3)C2=O)cc1	.	-22	.	.	11
CC(C)Oc1ccccc1/C=N/NC(=O)C1CCCC1	.	0.4	.	.	4
O=C1c2ccccc2C(=O)N1c1ccc(S(=O)(=O)N2CCCCC2)cc1	.	-1.4	.	.	-6
O=C(COC(=O)c1ccc(Cl)s1)c1ccc[nH]1	8.1µM*	1.8	15	.	98
Cc1cc(-c2ccc(C)c(S(=O)(=O)N3CC(=O)Nc4ccccc43)c2)on1	.	-1.0	.	.	0
Cc1c(/C=N/NC(=O)c2ccc3c(c2)OCO3)cnn1C	0%	1.8	-3	-26	-4
C=CCn1c2c(c(=O)[nH]c1=S)CN(C(C)c1ccccc1)CN2 (stereo unspecified)	.	-1.0	.	.	2
COC(=O)CN1C(C)=Nc2ccc(Br)cc2C1c1ccccc1 (stereo unspecified)	-1%	1.3	6	-9	0
CCOc1ccc(NC(=O)Cn2nnc(C(=O)NCc3cccs3)c2N)cc1	.	-1.3	.	.	7
COC(=O)[C@H](CC(C)C)NC(=O)NCc1ccc(Cl)cc1	-2%	0.0	.	.	1
COCCNC(=S)NNC(=O)c1ccc(-n2cnnn2)cc1	2%	-1.0	9	.	-1
O=C1CCCC2=C1C1c3ccccc3C(=O)N1c1ccc(C(=O)c3ccccc3)cc1N2 (stereo unspecified)	20%	15	-11	18	100
Nc1c(C(=O)O)cnc2nc(N3CCOCC3)nn12	-3%	-0.3	20	.	6
Cc1ccc2oc(=O)c3cnn(CC(=O)NC4CCC(C)CC4)c3c2c1 (stereo unspecified)	5%	-0.6	3	-17	1	Arbovirus anti repeat=-1
CC(C)(C)c1ccc(C(CC(=O)O)NC(=O)c2ccccc2F)cc1 (stereo unspecified)	-1%	-4.1	7	.	-5
COc1cccc(/C=C2\SC(N)=NC2=O)c1OS(=O)(=O)c1ccccc1	-4%	4.3	7	.	0
Cc1[nH]c2ccc(Br)cc2c(=O)c1CN1CCCCCC1	.	-0.1	.	.	10
COCC(=O)Nc1nc2n(n1)C(c1ccc(Cl)cc1)CC(c1ccc(OC)cc1)N2 (stereo unspecified)	-2%	-137	5	3	-10
CC(C)c1cc(C(=O)OCC(=O)N2CCN(C(=O)c3ccco3)CC2)c(O)c(C(C)C)c1	.	2.7	.	.	31
COc1ccc(-c2nc3c(c(=O)c4ccccc4n3C)c(=O)n2Cc2ccccc2)cc1	-9%	-0.1	-13	-25	-8
CC(C)COc1ccc(C(=O)N(CC(=O)Nc2ccccc2C(F)(F)F)Cc2ccco2)cc1	.	-0.8	.	.	6
CC(C)CNC(=O)C(=O)Nc1cc2c3c(c1)CCC(=O)N3CCC2	.	-2.1	.	.	4
C=C1C[C@H]2[C@@H]3C=C(C)C4=CC(=O)CC[C@]4(C)[C@H]3CC[C@]2(C)[C@@]1(OC(C)=O)C(C)=O	.	4.1	.	.	-3
CN(C1CCCCC1)S(=O)(=O)c1ccc(C(=O)O)cc1	-2%	0.3	5	-45	7
CCN(CC)CCNC(=O)CCc1n[nH]c(=O)c2ccccc12	0%	0.5	8	-48	-7
CCSc1nnc(NC(=O)COc2ccccc2)s1	-5%	0.0	8	-13	7
CCNS(=O)(=O)c1ccc2nc(NC(=O)c3cccnc3)sc2c1	-3%	-9.6	0	-21	-4
Cc1ccc(N2CC(C(=O)Nc3ccc(N4CCOCC4)cc3)CC2=O)cc1C (stereo unspecified)	.	-0.2	.	.	6
O=C(NC(=S)Nc1ccc(C(=O)N2CCOCC2)cc1)c1ccc([N+](=O)[O-])cc1	-4%	1.3	5	-16	4
Cc1ccnc(N2CCC(C(=O)NNC(=O)c3ccncc3)CC2)n1	-1%	-0.5	2	.	3
COc1ccc(/C=C2/CC/C(=C\c3ccc(OC)c(OC)c3OC)C2=O)c(OC)c1OC	16%	-0.4	5	-11	-2
O=C(c1cccnc1Nc1ccc2c(c1)CCC2)N1CCOCC1	-13%	-1.1	1	-45	-4
CC/C(O)=C1\C(=O)CC(c2ccccc2)CC1=NCCc1c(C)[nH]c2ccc(C)cc12 (stereo unspecified)	2%	-1.4	-8	-27	-5
C=C(C)CCC(C)N1CCC(n2nccc2NC(=O)CCOc2ccccc2)CC1 (stereo unspecified)	.	-3.1	.	.	-7

Molecules from the list above that have a tert-butyl group:
SMILES	Mtb growth	RecA intein inh	Arbovirus anti	YopH inh	Mtb bLac sens	others
Cc1cc(OC(=O)C(C)(C)C)c([N+](=O)[O-])c(=O)[nH]1	.	.	-3	.	3
CC(C)(C)c1ccc(C(CC(=O)O)NC(=O)c2ccccc2F)cc1 (stereo unspecified)	-1%	-4.1	7	.	-5
